FGF22 binding = shifts melting point of recombinant human FGF22 | recombinant FGF22 thermal shift, SYPRO orange fluorescence; percent of sucrose octasulfate shift, DMSO zero | Q9HCT0 | AID 651658 | hit rate 1.5% among 340,000 | calls only at 9.99 µM;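 active = melting point raised past a set limit in the mean and every replicate; three in four hits are not shown here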
Target sequence (Q9HCT0 whole entry, looked up): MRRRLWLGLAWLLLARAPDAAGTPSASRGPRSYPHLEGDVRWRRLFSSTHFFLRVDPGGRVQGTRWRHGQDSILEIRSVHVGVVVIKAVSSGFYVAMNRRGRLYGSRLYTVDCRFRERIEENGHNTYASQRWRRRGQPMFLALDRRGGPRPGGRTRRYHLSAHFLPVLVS
Calls only; i = inactive; + = active, no number.

item | smiles | FGF22 binding
1 | COc1ccc(NC(=O)N(C)C[C@H]2Oc3ccc(NC(=O)CCCN(C)C)cc3C(=O)N([C@H](C)CO)C[C@H]2C)cc1 | i
2 | C[C@H](CO)N1C[C@H](C)[C@H](CN(C)Cc2ccc(C(F)(F)F)cc2)Oc2ccc(NC(=O)Cn3cnnn3)cc2CC1=O | i
3 | COCc1cc(N2CCNC[C@@H]2C)ccc1N1CCN(Cc2ccccc2)[C@@H](C)C1 | i
4 | C[C@@H]1CN([C@@H](C)CO)S(=O)(=O)c2ccc(C#CC3CC3)cc2O[C@H]1CN(C)C(=O)C1CCC1 | i
5 | C[C@@H]1CN([C@@H](C)CO)C(=O)c2cc(C3=CCCCC3)cnc2O[C@H]1CN(C)Cc1ccccc1C(=O)O | i
6 | COc1ccc(S(=O)(=O)N(C)C[C@@H]2OCCCC[C@H](C)Oc3ccc(N(C)C)cc3C(=O)N([C@@H](C)CO)C[C@@H]2C)cc1 | i
7 | COc1ccccc1CNC(=O)C[C@@H]1CC[C@H]2[C@@H](COC[C@H](O)CN2C(=O)Nc2ccccc2)O1 | i
8 | C[C@H](CO)N1C[C@H](C)[C@@H](CN(C)Cc2ccncc2)OCCCC[C@H](C)Oc2ccc(NS(C)(=O)=O)cc2C1=O | i
9 | CCCNC(=O)Nc1ccc2c(c1)C(=O)N(C)[C@H]1CC[C@@H](CC(=O)NCC3CCCCC3)O[C@@H]1CO2 | i
10 | C[C@@H]1CN([C@@H](C)CO)C(=O)Cc2cc(NC(=O)Cc3ccccc3)ccc2O[C@H]1CN(C)C(=O)Nc1ccc2c(c1)OCO2 | i
11 | C[C@@H]1CN([C@H](C)CO)C(=O)Cc2cc(NC(=O)Nc3ccc(F)cc3)ccc2O[C@H]1CN(C)C(=O)Nc1ccccc1 | i
12 | COc1ccc(NC(=O)Nc2ccc3c(c2)C(=O)N([C@@H](C)CO)C[C@H](C)[C@@H](CN(C)C)OCCCC[C@@H](C)O3)cc1 | i
13 | Cc1ccc(S(=O)(=O)NCC[C@@H]2CC[C@@H](NS(=O)(=O)c3ccccc3Cl)[C@@H](CO)O2)cc1 | i
14 | CS(=O)(=O)N1CC2(C1)[C@@H](c1ccccc1)[C@@H](CO)N2Cc1ccc(F)cc1 | +
15 | COc1ccc(CN(C)C[C@@H]2OCCCC[C@H](C)Oc3ccc(NC(=O)CCC(F)(F)F)cc3C(=O)N([C@@H](C)CO)C[C@H]2C)cc1 | i
16 | COc1cc(CN2CC3(CN(C(=O)Nc4c(C)noc4C)C3)c3c([nH]c4cc(OC)ccc34)[C@H]2CO)cc(OC)c1 | i
17 | C[C@@H]1CN([C@@H](C)CO)C(=O)c2cc(NC(=O)Nc3ccc(C(F)(F)F)cc3)ccc2O[C@H]1CN(C)Cc1ccc(C(=O)O)cc1 | i
18 | COc1ccc(CN(C)C[C@@H]2Oc3c(NC(=O)Nc4cccc5ccccc45)cccc3C(=O)N([C@@H](C)CO)C[C@@H]2C)cc1 | i
19 | O=C([C@@H]1[C@@H](CO)[C@@H]2Cn3c(cccc3=O)[C@H]1N2C(=O)c1ccc(F)cc1)N1CCCCC1 | i
20 | C[C@H]1CN([C@@H](C)CO)C(=O)CCCn2cc(nn2)CO[C@@H]1CN(C)Cc1ccc(C(=O)Nc2ccccc2N)cc1 | i
21 | O=C(CCN1CCCCC1)NCC[C@@H]1CC[C@@H](NC(=O)c2ccc(F)cc2)[C@@H](CO)O1 | i
22 | COc1ccc([C@@H]2C=C(C(=O)N3CCCCC3)O[C@H](OCc3ccc(CO)cc3)C2)cc1 | i
23 | Cc1ccc(S(=O)(=O)Nc2ccc3c(c2)CC(=O)N([C@H](C)CO)C[C@H](C)[C@@H](CN(C)Cc2ccc(-c4ccccc4)cc2)O3)cc1 | i
24 | C[C@@H]1CN([C@@H](C)CO)C(=O)c2cc(NC(=O)CCCN(C)C)ccc2O[C@H]1CN(C)C(=O)Nc1ccc2c(c1)OCO2 | i
25 | COc1ccc(S(=O)(=O)Nc2ccc3c(c2)C(=O)N([C@H](C)CO)C[C@H](C)[C@@H](CN(C)C)OCCCC[C@H](C)O3)cc1 | i
26 | CCOc1ccc(NC(=O)CN2C(=O)c3cccc4cccc2c34)cc1 | i
27 | O=C(C[C@@H]1CC[C@@H]2[C@H](COC[C@H](O)CN2C(=O)Nc2ccc(Cl)c(Cl)c2)O1)NCc1ccccc1 | i
28 | C[C@@H]1CN([C@H](C)CO)C(=O)c2cccc(NC(=O)Nc3ccc(C(F)(F)F)cc3)c2O[C@H]1CN(C)S(=O)(=O)c1cn(C)cn1 | i
29 | COCC(=O)N1CC(=O)N2[C@H](CO)[C@@H](c3ccc(C#CCc4ccccc4)cc3)[C@@H]2C1 | i
30 | COc1ccc(S(=O)(=O)N2CCC3(CC2)CN(C(=O)CN(C)C)[C@H](CO)c2c3c3ccc(OC)cc3n2C)cc1 | i
31 | CC(C)NC(=O)Nc1ccc2c(c1)CC(=O)N([C@H](C)CO)C[C@H](C)[C@H](CN(C)Cc1ccc(Oc3ccccc3)cc1)O2 | i
32 | CC(C)NC(=O)N[C@H]1CC[C@H](CC(=O)N2CCCCC2)O[C@H]1CO | i
33 | C[C@@H]1CN([C@H](C)CO)C(=O)c2cc(NS(=O)(=O)c3ccc(Cl)cc3)ccc2O[C@@H](C)CCCCO[C@H]1CN(C)C(=O)Nc1ccc(C(F)(F)F)cc1 | i
34 | Cn1cnc(S(=O)(=O)N2C[C@@H](O)COC[C@@H]3O[C@@H](CC(=O)N4CCN(c5ccccc5)CC4)CC[C@H]32)c1 | i
35 | CO[C@H]1CC[C@@H]2CCOc3c(C#N)cccc3C(=O)N(C)C[C@H](OC)[C@@H](C)C(=O)N(C)C[C@@H]1O2 | i
36 | CO[C@H]1CN(C)C(=O)c2cc(NC(=O)c3cc(C)on3)ccc2OC[C@@H](C)N(CC2CC2)C[C@H]1C | i
37 | COCC(=O)NC[C@H]1[C@H](c2ccc(C3=CCCC3)cc2)[C@@H](CO)N1C(C)=O | +
38 | O=C(C[C@@H]1C=C[C@@H](NC(=O)Nc2ccc(C(F)(F)F)cc2)[C@H](CO)O1)NCc1ccccn1 | i
39 | CN1C(=O)c2cc(NC(=O)C3CCCCC3)ccc2OC[C@H]2O[C@@H](CC(=O)NCCc3ccncc3)CC[C@H]21 | i
40 | CO[C@H]1CN(C)C(=O)c2ccc(NC(=O)c3ccc(F)cc3)cc2OC[C@@H](C)N(C(=O)CC2CC2)C[C@H]1C | i
41 | COc1ccc(S(=O)(=O)Nc2ccc3c(c2)C(=O)N([C@H](C)CO)C[C@H](C)[C@H](CN(C)S(=O)(=O)c2cccs2)OCCCC[C@@H](C)O3)cc1 | i
42 | C[C@H]1CN([C@@H](C)CO)C(=O)c2cccc(NS(=O)(=O)c3ccc(Cl)cc3)c2O[C@H]1CN(C)Cc1ccc(Oc2ccccc2)cc1 | i
43 | O=c1[nH]c(-c2ccccc2)cn1C1CCN(Cc2ccc(-c3nc4ccc(F)cc4nc3-c3ccccc3)cc2)CC1 | i
44 | COc1ccc(NC(=O)Nc2ccc3c(c2)C(=O)N([C@H](C)CO)C[C@H](C)[C@H](CN(C)C(=O)Nc2ccc(OC)cc2)O3)cc1 | i
45 | C[C@H]1CN([C@@H](C)CO)C(=O)c2cc(NS(=O)(=O)c3cccs3)ccc2O[C@H]1CN(C)S(=O)(=O)c1ccc(F)cc1 | i

Structural class, those above with a COOH group
item | smiles | FGF22 binding
5 | C[C@@H]1CN([C@@H](C)CO)C(=O)c2cc(C3=CCCCC3)cnc2O[C@H]1CN(C)Cc1ccccc1C(=O)O | i
17 | C[C@@H]1CN([C@@H](C)CO)C(=O)c2cc(NC(=O)Nc3ccc(C(F)(F)F)cc3)ccc2O[C@H]1CN(C)Cc1ccc(C(=O)O)cc1 | i

Back to the main list, starting 6 compounds before the break.
item | smiles | FGF22 binding
40 | CO[C@H]1CN(C)C(=O)c2ccc(NC(=O)c3ccc(F)cc3)cc2OC[C@@H](C)N(C(=O)CC2CC2)C[C@H]1C | i
41 | COc1ccc(S(=O)(=O)Nc2ccc3c(c2)C(=O)N([C@H](C)CO)C[C@H](C)[C@H](CN(C)S(=O)(=O)c2cccs2)OCCCC[C@@H](C)O3)cc1 | i
42 | C[C@H]1CN([C@@H](C)CO)C(=O)c2cccc(NS(=O)(=O)c3ccc(Cl)cc3)c2O[C@H]1CN(C)Cc1ccc(Oc2ccccc2)cc1 | i
43 | O=c1[nH]c(-c2ccccc2)cn1C1CCN(Cc2ccc(-c3nc4ccc(F)cc4nc3-c3ccccc3)cc2)CC1 | i
44 | COc1ccc(NC(=O)Nc2ccc3c(c2)C(=O)N([C@H](C)CO)C[C@H](C)[C@H](CN(C)C(=O)Nc2ccc(OC)cc2)O3)cc1 | i
45 | C[C@H]1CN([C@@H](C)CO)C(=O)c2cc(NS(=O)(=O)c3cccs3)ccc2O[C@H]1CN(C)S(=O)(=O)c1ccc(F)cc1 | i
46 | CC(=O)NC[C@@H]1[C@H](c2ccc(-c3cccnc3)cc2)[C@H](CO)N1C(=O)C1CC1 | i
47 | N#C[C@@H]1[C@H](c2ccc(-c3cccc(F)c3)cc2)[C@@H](CO)N1C(=O)CN1CCOCC1 | i
48 | COCc1cn(CC[C@@H]2CC[C@H](NC(=O)Nc3ccc(Cl)cc3)[C@H](CO)O2)nn1 | i
49 | C[C@@H]1CN([C@H](C)CO)C(=O)CCCn2nncc2CO[C@@H]1CN(C)Cc1cccc(O)c1 | i
50 | CCC(=O)Nc1ccc2c(c1)OC[C@H](C)N(C(=O)CN1CCOCC1)C[C@H](C)[C@@H](OC)CN(C)C2=O | i
51 | CO[C@@H]1CN(C)C(=O)c2cc(NC(=O)C3CC3)ccc2OC[C@@H](C)N(C(=O)C2CCOCC2)C[C@H]1C | i
52 | C[C@@H]1CN([C@@H](C)CO)C(=O)Cc2cc(NC(=O)C3CCCCC3)ccc2O[C@@H]1CN(C)S(=O)(=O)c1ccc(Cl)cc1 | i
53 | CO[C@@H](CN(C)C(=O)C1CCOCC1)[C@@H](C)CN([C@@H](C)CO)S(=O)(=O)c1ccccc1 | i
54 | Cc1ccc(S(=O)(=O)N(C)C[C@H]2OCCCC[C@H](C)Oc3ccc(NC(=O)C4CCCCC4)cc3C(=O)N([C@@H](C)CO)C[C@H]2C)cc1 | i
55 | CCCN1C[C@H](C)[C@@H](OC)CN(C)C(=O)c2cc(NC(=O)C3CCOCC3)ccc2OC[C@H]1C | i
56 | C[C@@H]1CCCCO[C@@H](CN(C)S(=O)(=O)c2ccc(Cl)cc2)[C@H](C)CN([C@@H](C)CO)C(=O)c2cc(NC(=O)Cc3ccccc3)ccc2O1 | i
57 | COCC(=O)N(C)C[C@@H]1Oc2ncc(C#Cc3ccccc3)cc2C(=O)N([C@H](C)CO)C[C@@H]1C | i
58 | CN1[C@H](C(=O)NCC2CC2)[C@@H](CO)[C@@H]2Cn3c(ccc(-c4ccc(F)cc4)c3=O)[C@@H]21 | i
59 | O=C(c1ccccc1)N1[C@H](CO)[C@@H](c2ccccc2)C12CN(Cc1nccs1)C2 | i
60 | C[C@H]1CN(C(=O)OC(C)(C)C)CCN1c1ccc(N2CC[C@H](O)C2)c(C#N)c1 | i
61 | COc1ccc(S(=O)(=O)N(C)C[C@H]2OCCCC[C@H](C)Oc3ccc(NC(=O)Nc4cccc5ccccc45)cc3C(=O)N([C@@H](C)CO)C[C@H]2C)cc1 | i
62 | C[C@@H]1CN([C@@H](C)CO)S(=O)(=O)c2ccc(C#Cc3ccc(F)cc3)cc2O[C@H]1CN(C)S(=O)(=O)c1cn(C)cn1 | i
63 | CO[C@H]1CC[C@@H]2CCOc3c(C#N)cccc3C(=O)N(C)C[C@@H](OC)[C@@H](C)C(=O)N(C)C[C@H]1O2 | i
64 | CC(=O)N1CC2(C1)[C@H](c1ccc(-c3ccc(C#N)cc3)cc1)[C@H](CO)N2CCC(F)(F)F | i
65 | C[C@@H]1CN([C@@H](C)CO)C(=O)c2cccc(NS(=O)(=O)c3cn(C)cn3)c2O[C@@H]1CN(C)C(=O)Nc1ccc(C(F)(F)F)cc1 | i
66 | Cc1noc(C)c1NC(=O)N(C)C[C@@H]1Oc2ccc(NC(=O)NC3CCCCC3)cc2C(=O)N([C@H](C)CO)C[C@@H]1C | i
67 | O=C(C[C@H]1CC[C@H](NC(=O)C2CCC2)[C@@H](CO)O1)NC1CCCCC1 | i
68 | C[C@@H]1CCCCO[C@@H](CN(C)S(C)(=O)=O)[C@@H](C)CN([C@H](C)CO)C(=O)c2cc(NC(=O)CCCN(C)C)ccc2O1 | i
69 | COc1ccc2c3c(n(C)c2c1)[C@H](CO)N(Cc1ccc2c(c1)OCO2)CC31CCN(C(=O)c2ccc3c(c2)OCO3)CC1 | i
70 | C[C@H](CO)N1C[C@H](C)[C@H](CN(C)C(=O)Nc2ccc3c(c2)OCO3)Oc2ccc(NS(=O)(=O)c3ccc(F)cc3)cc2C1=O | i
71 | COc1ccc(S(=O)(=O)N(C)C[C@@H]2Oc3c(NC(=O)C4CC4)cccc3C(=O)N([C@H](C)CO)C[C@@H]2C)cc1 | i
72 | CS(=O)(=O)Nc1ccc2c(c1)[C@@H]1C[C@@H](CC(=O)NCC(F)(F)F)O[C@@H](CO)[C@@H]1O2 | i
73 | COCC(=O)Nc1ccc2c(c1)C(=O)N(C)C[C@H](OC)[C@@H](C)CN(C(=O)NC(C)C)[C@@H](C)CO2 | i
74 | C[C@H](CO)N1C[C@H](C)[C@H](CN(C)Cc2cccnc2)Oc2cc(C#CC3CCCC3)ccc2S1(=O)=O | i
75 | CO[C@H]1CN(C)C(=O)c2ccc(NS(=O)(=O)c3cccc(F)c3)cc2OC[C@@H](C)N(C(=O)Cc2cccnc2)C[C@@H]1C | i
76 | COc1ccc(OC(=O)N(C)C[C@@H]2OCc3ccccc3-c3ccccc3C(=O)N([C@H](C)CO)C[C@H]2C)cc1 | i
77 | C[C@@H]1CN([C@@H](C)CO)C(=O)c2cc(NC(=O)Nc3ccccc3)ccc2O[C@H]1CN(C)S(=O)(=O)c1cccs1 | i
78 | CC(C)CC#Cc1ccc2c(c1)O[C@H](CN(C)C(=O)C1CCCCC1)[C@@H](C)CN([C@@H](C)CO)S2(=O)=O | i
79 | CCS(=O)(=O)N[C@H]1C=C[C@@H](CC(=O)NC2Cc3ccccc3C2)O[C@H]1CO | i
80 | O=C(Cc1ccccc1)N1CC2(C1)[C@H](c1ccccc1)[C@@H](CO)N2C(=O)c1cccnc1 | i
81 | Cn1c(N)c(C(=O)CCc2ccccc2)c(=O)n(C)c1=O | i
82 | C=CCCC1CN(Cc2ccc(OC)cc2)S(=O)(=O)c2c(cccc2N(C)S(=O)(=O)c2ccc(C)cc2)O1 (stereo not drawn) | i

Some of the compounds tested; the hit share may differ from the screen's.
